VDR inh: blocks the human vitamin D receptor; VDR-SRC2-3 peptide fluorescence polarization, 2 h; Potency, µM, inactives show max response, negative = inhibition, hits mostly inhibitors; P11473; 0.93% of 400,000 active; active means well fitted inhibition curve with a large enough effect; inconclusive means small, poorly fitted or top-dose-only effect, or another doubt; inactive means no such curve, though single readings can be large or run the other way; further: series mostly up to about 120 µM
Target sequence (P11473 whole entry, looked up): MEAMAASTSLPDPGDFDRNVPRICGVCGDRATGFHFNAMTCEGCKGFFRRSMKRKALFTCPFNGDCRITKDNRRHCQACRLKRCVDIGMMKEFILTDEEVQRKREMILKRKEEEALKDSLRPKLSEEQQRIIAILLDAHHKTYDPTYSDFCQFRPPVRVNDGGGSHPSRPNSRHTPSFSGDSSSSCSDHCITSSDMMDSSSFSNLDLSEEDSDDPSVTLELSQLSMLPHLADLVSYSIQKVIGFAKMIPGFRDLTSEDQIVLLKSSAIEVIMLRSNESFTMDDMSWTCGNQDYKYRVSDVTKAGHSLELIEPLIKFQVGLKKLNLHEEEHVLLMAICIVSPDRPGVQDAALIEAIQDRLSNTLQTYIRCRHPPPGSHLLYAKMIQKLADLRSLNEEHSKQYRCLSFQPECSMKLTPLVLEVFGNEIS
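Fluorescence polarization assay measuring small-molecule disruption of VDR binding to the coregulator peptide SRC2-3. Compounds were pin-transferred (23 nl) into the reagent mix and incubated 2 h at room temperature before reading.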
* = called active by the depositor; [ ] = another dose, or the depositor's remark. On the % scale 0 is the no-effect control and ±100 the full control effect; potency means the concentration at half of the fitted maximal effect.

What do the screens show for `Cc1ccc(C2=N/C(=C\N3CCCCC3)C(=O)O2)cc1`?
VDR inh: -16%

How did COc1ccc(N=c2oc3cc(O)ccc3cc2C(=O)Nc2ccccn2)cc1OC do in these assays?
VDR inh: -10%

Results for COC(=O)CCC(=O)NC(=S)Nc1ccc(S(=O)(=O)Nc2cc(OC)nc(OC)n2)cc1 ?
VDR inh: inconclusive

Results for O=C1C=C(c2cc3ccccc3s2)CCC1 ?
VDR inh: -9%

What do the screens show for `CC(C)[C@@H](CC(=O)N[C@@H]1CCNC[C@H]1C(=O)N[C@H](CC(=O)N[C@@H](CCC(=O)O)CC(=O)O)Cc1c[nH]c2ccccc12)NC(=O)C[C@H](Cc1ccccc1)NC(=O)[C@@H]1CCCC[C@H]1N`?
VDR inh: -2%

How did CCOc1cc(/C=N/NC(=O)OC)ccc1OCCSc1ccc(Cl)cc1 do in these assays?
VDR inh: -1%

Results for Cc1ccc(C)c(NS(=O)(=O)c2cc3c(cc2Cl)NC(=O)CO3)c1 ?
VDR inh: 5%

What do the screens show for `CCC(=O)N1CCC(NC(=O)Nc2ccc(OC(F)(F)F)cc2)CC1`?
VDR inh: -4%

Results for COC(=O)c1sc2cc(C(F)(F)F)cnc2c1-c1ccccn1 ?
VDR inh: 3%

How did Cc1ccc(NC(=O)c2ccc(-n3nncc3-c3ccccc3)cc2)cc1 do in these assays?
VDR inh: -3%

Results for CCc1ccc(S(=O)(=O)Nc2ccc(-c3ccc4nncn4n3)cc2)s1 ?
VDR inh: -9%

Results for O=C1CCC(C(=O)OCC(=O)Nc2ccc(Cl)cc2C(F)(F)F)=NN1 ?
VDR inh: 16%

What do the screens show for `C=CCNCC(=O)Nc1ccccc1SCC(=O)Nc1ccsc1C(=O)OC`?
VDR inh: 13%

How did O=S(=O)(Nc1nccs1)c1ccc(NS(=O)(=O)c2c(F)cc(F)c(Cl)c2F)cc1 do in these assays?
VDR inh: -7%

What do the screens show for `COc1ccccc1Nc1nc(NCCCCO)nc(N2CCCC2)n1`?
VDR inh: 4%

Results for COc1cc(C(c2c(C)[nH][nH]c2=O)c2c(C)[nH][nH]c2=O)cc([N+](=O)[O-])c1O ?
VDR inh: -15%

What do the screens show for `Cc1ccc(NC(=O)CSc2ccc(-c3ccc(-n4cccn4)cc3)nn2)c(C)c1`?
VDR inh: -9%

Results for CCc1ccc(CN2C(=O)c3ccccc3C2C(=O)NC2CCCCCC2)cc1 (configuration not stated) ?
VDR inh: -5%

Results for O=C1C=C(c2ccc(-c3ccccc3)c(F)c2)C[C@@H](c2ccc(F)cc2)C1 ?
VDR inh: -8%

Results for COc1ccc(C)cc1-n1c(=O)c2ccccc2c2ccccc2c1=O ?
VDR inh: -10%

How did CC(C(=O)NC1=NCCS1)(C(F)(F)F)C(F)(F)F do in these assays?
VDR inh: 6%

What do the screens show for `Cc1cccc(C)c1NC(=O)c1sccc1SCC#N`?
VDR inh: -13%

Results for COc1ccc(CCNC(=O)Cn2nnc(-c3ccc(C(F)(F)F)cc3)n2)cc1OC ?
VDR inh: -8%

What do the screens show for `Cc1ncc(CO)c(/C=N/Nc2cccc(Cl)n2)c1O`?
VDR inh: 3%

Results for Cc1c(C(=O)Nc2ccccn2)oc2ccccc12 ?
VDR inh: -13%

How did COc1ccccc1CNS(=O)(=O)c1cc(C)ccc1OC do in these assays?
VDR inh: -19%

What do the screens show for `CC(C)NC(=O)COC(=O)c1ccc(Cl)c(S(=O)(=O)N2CCCC2)c1`?
VDR inh: 9%

Results for CC(=O)c1cccc(NC(=O)N2CCC(c3nnc(SCC(N)=O)n3C)CC2)c1 ?
VDR inh: 13%

How did N#Cc1nc(-c2ccccc2)oc1N1CCCCC1 do in these assays?
VDR inh: 13%

How did CC(C)(Oc1ccc(Cl)cc1)C(=O)Nc1ccc(S(=O)(=O)Nc2ncccn2)cc1 do in these assays?
VDR inh: -8%

2 entries drawn at random from those above, as already listed:
What do the screens show for `CC(C)NC(=O)COC(=O)c1ccc(Cl)c(S(=O)(=O)N2CCCC2)c1`?
VDR inh: 9%

Results for Cc1c(C(=O)Nc2ccccn2)oc2ccccc12 ?
VDR inh: -13%

Going on with the list:
What do the screens show for `COc1cc2ccccc2cc1C(=O)OCC(=O)N1CCOCC1`?
VDR inh: 5%

How did CC(OC(=O)c1ccc2ncsc2c1)C(=O)NC1CCCCC1C (configuration not stated) do in these assays?
VDR inh: 10%

What do the screens show for `Cc1ccc(CNC(=S)Nc2ccc(C)c([N+](=O)[O-])c2)cc1`?
VDR inh: inconclusive

How did O=C(c1ccc(F)c(F)c1)N1CCCc2ccccc21 do in these assays?
VDR inh: -18%

Results for CC1(C)Cc2c(sc3nc(SCC(=O)NCc4ccco4)n(-c4ccccc4)c(=O)c23)CS1 ?
VDR inh: -15%

What do the screens show for `Cc1cccc(N2C(=O)C(O)=C(C(=O)c3cccs3)C2c2ccccc2)n1` (configuration not stated)?
VDR inh: -10%

How did CC(C)CCNC(=O)c1cc(-c2ccco2)nc2ccccc12 do in these assays?
VDR inh: -2%

Results for CCc1nnc(NC(=O)C2CC(=O)N(C3CCCC3)C2)s1 (configuration not stated) ?
VDR inh: 6%

Results for CC(C)(C)C1CCC(C(=O)NNC(=O)c2ccncc2)CC1 (configuration not stated) ?
VDR inh: -8%

Results for O=C(Nc1ccc(OC(F)F)c(Cl)c1)c1cccc(OC(F)F)c1 ?
VDR inh: -1%

What do the screens show for `CC1(C)CC(=O)c2sc(NC(=O)CN3CCCCC3)nc2C1`?
VDR inh: 12%

What do the screens show for `CC[C@@]1(C(=O)OC)N[C@H](CN(C)C(=O)Nc2ccc(F)cc2)[C@@H]2C(=O)N(Cc3ccccc3)C(=O)[C@@H]21`?
VDR inh: -5%

How did COCCN1CCn2c(nc3cc(NC(=O)Cn4nc(C)c5ccccc5c4=O)ccc32)C1 do in these assays?
VDR inh: -7%

How did CCOc1ccc(CCNC(=O)CCCn2c(=O)c3cccn3c3cccnc32)cc1 do in these assays?
VDR inh: 8%

What do the screens show for `CC(C)C(C(=O)NCc1ccco1)N(CC1CCCO1)C(=O)CNS(=O)(=O)c1ccc(F)cc1` (configuration not stated)?
VDR inh: 42%[activator]

How did CCCCn1c(=O)[nH]c(=O)c2c1nc(COc1ccc(C#N)cc1)n2CCC do in these assays?
VDR inh: -4%

How did O=S(=O)(Nn1c(O)c(C=C2N=c3ccccc3=N2)sc1=S)c1ccccc1 do in these assays?
VDR inh: -21%

What do the screens show for `N=C1C(c2nc3ccccc3c(=O)[nH]2)=C(O)CN1CCO`?
VDR inh: 6%

What do the screens show for `O=C(/C=C/c1ccc(OC2CSC2)cc1)c1ccc(Cl)cc1`?
VDR inh: inconclusive

Results for CCOC(=O)c1ccc(NC(=O)CSc2nccn2Cc2ccc(OC)cc2)cc1 ?
VDR inh: 13%

Results for CC(C)(Oc1ccc(Cl)cc1)C(=O)NC1CCCCC1 ?
VDR inh: -1%

What do the screens show for `CCC(c1nnnn1C(C)(C)C)N1CCN(c2cc(Cl)ccc2C)CC1` (configuration not stated)?
VDR inh: -5%

What do the screens show for `CC(=O)c1ccccc1NC(=O)CSc1nnc(Cc2csc(C)n2)o1`?
VDR inh: 11%

How did Cc1ccc(S(=O)(=O)N/N=C\c2cc([N+](=O)[O-])ccc2Cl)cc1 do in these assays?
VDR inh: -44%

Results for CC(C)CNc1nc(N)c([N+](=O)[O-])c(N2CCCCCC2)n1 ?
VDR inh: 0%

How did Cn1c(-c2ccccc2Br)n[nH]c1=S do in these assays?
VDR inh: -6%

How did Cc1nc(NC(=S)NC(=O)c2cncc(Br)c2)ccc1Br do in these assays?
VDR inh: inconclusive

Results for Cc1cnc2c3c(cc(Cl)c2c1)-c1ccccc1S(=O)(=O)N3 ?
VDR inh: inconclusive

What do the screens show for `O=C(NCc1cccs1)C1CCC(CNS(=O)(=O)c2ccc(Br)s2)CC1` (configuration not stated)?
VDR inh: -11%

How did CCOc1cc(/C=N\NC(=O)OC)ccc1OC(=O)c1ccco1 do in these assays?
VDR inh: 15%

What do the screens show for `CN(C)c1ccc(-c2nc(-c3cc4cc(Cl)ccc4oc3=O)cs2)cc1`?
VDR inh: 0%

How did COc1ccccc1C(=O)Nc1ccccc1N1CCN(S(C)(=O)=O)CC1 do in these assays?
VDR inh: -9%

How did Cc1ccc(C(=O)N/N=C\c2ccc(-c3ccc(Cl)c(Cl)c3)o2)cn1 do in these assays?
VDR inh: 1%

How did O=C(Nc1ccc(OC(F)(F)F)cc1)C1CCCN(S(=O)(=O)c2cccc3nonc23)C1 (configuration not stated) do in these assays?
VDR inh: -6%

Results for CCOc1ccccc1N=CC1=C(O)CC(c2ccccc2)CC1=O (configuration not stated) ?
VDR inh: -9%

What do the screens show for `O=C1N(Cc2cccnc2)C[C@@H]2C[C@@H](c3ccc(C(F)(F)F)cc3)N3CCC[C@@]123`?
VDR inh: 9%

Results for COc1ccc2cc(C)c3nnc(SCC(=O)Nc4nc(-c5ccccc5)cs4)n3c2c1 ?
VDR inh: 18%

Results for CC1=CCC(C(=O)O)(C(=O)N/N=C/c2cccs2)C(c2ccc(F)cc2)C1 (configuration not stated) ?
VDR inh: 0%

What do the screens show for `CN(C(=O)CN1C(=O)S/C(=C\c2ccc(Cl)cc2)C1=O)C1CCS(=O)(=O)C1` (configuration not stated)?
VDR inh: -10%

Results for O=C1OC(c2ccc(F)cc2)=N/C1=C\C=C/c1ccccc1 ?
VDR inh: -25%

What do the screens show for `Cc1c(Br)ccc(NC(=O)COc2ccccc2C(N)=O)c1C`?
VDR inh: -16%

What do the screens show for `Cc1ccc(N2CCN(C(=O)C3CCN(c4ncnc5c4nc4n5CCCCC4)CC3)CC2)c(C)c1`?
VDR inh: 1%

Results for O=C(O)CN1C(=O)N/C(=C\c2cccn2-c2ccc(P(=O)(O)O)cc2)C1=O ?
VDR inh: inconclusive

Results for CC(C)[C@H](NC(=O)[C@@H]1Cc2ccccc2CN1C(=O)OC(C)(C)C)C(=O)NC1CCCC1 ?
VDR inh: -8%

How did Cc1cc(C(=O)NN)c2cc(Br)ccc2n1 do in these assays?
VDR inh: -11%

Results for COCCOC(=O)c1c(NC(=O)CNc2ccc(C)c(F)c2)sc(C(N)=O)c1C ?
VDR inh: 14%

What do the screens show for `COc1ccc(NC(=O)c2cnc3sccn3c2=O)cc1`?
VDR inh: -3%

What do the screens show for `O=C(Nc1cc(S(=O)(=O)N2CCOCC2)ccc1N1CCOCC1)c1ccc([N+](=O)[O-])s1`?
VDR inh: inconclusive

Results for CCOc1cc(C2Nc3ccccc3-c3nnc(SCc4ccccc4)nc3O2)ccc1OC (configuration not stated) ?
VDR inh: 1%

Results for COc1ccc(-c2noc(CCC(=O)N3CCC(c4cc(C)ccc4C)CC3)n2)cc1 ?
VDR inh: -17%

How did COc1ccc(OC)c(CNS(=O)(=O)c2ccc3c(c2)oc(=O)n3C)c1 do in these assays?
VDR inh: -5%

How did Cc1ccc(C(=O)NCC(=O)O)s1 do in these assays?
VDR inh: -6%

How did NC(=O)C1CCN(C(=O)C2CCC(=O)N(Cc3ccc(Cl)cc3)C2)CC1 (configuration not stated) do in these assays?
VDR inh: -5%

What do the screens show for `CCC(=O)Nc1cccc(NC(=S)NC(=O)c2ccc(Cl)cc2)c1`?
VDR inh: -12%

How did Cc1cccc(N2CCN(C(=O)CN3C(=O)COc4ccc(S(=O)(=O)N5CCC(C)CC5)cc43)CC2)c1C do in these assays?
VDR inh: 1%

Results for CC(=O)N1N=C(N)SC1c1cccc([N+](=O)[O-])c1 (configuration not stated) ?
VDR inh: -16%

How did Cc1ccc(C(=O)OCC(=O)Nc2ccc(F)c(Cl)c2)o1 do in these assays?
VDR inh: 5%

Results for Cc1ccc2c(c1)c1c(c(=O)n(Cc3ccccc3)c(=O)n1CC(=O)NCc1ccccc1Cl)n2C ?
VDR inh: -4%

How did CC(c1cccs1)N(Cc1ccco1)C(=O)Nc1ccc(Cl)c(Cl)c1 (configuration not stated) do in these assays?
VDR inh: -4%

How did CCNC(=O)n1cc(-n2cncn2)c(-c2ccccc2)n1 do in these assays?
VDR inh: -3%

What do the screens show for `Cc1nn(-c2ccccc2)c(OC(=O)C(C)(C)C)c1Sc1ccccc1`?
VDR inh: 79µM*

Results for COC1Cc2ccccc2N(C(N)=O)c2ccccc21 (configuration not stated) ?
VDR inh: 4%

What do the screens show for `COc1ccc(CN(C)Cc2c(O)ccc3cc(Br)ccc23)cc1OC`?
VDR inh: -2%

What do the screens show for `CCOC(=O)c1sc(NC(=O)c2cccs2)nc1C`?
VDR inh: -11%

How did Cc1ccc(CSCC(=O)NCCCN2CCOCC2)cc1 do in these assays?
VDR inh: 3%

What do the screens show for `CC(=O)N/C(=C\c1ccc(F)cc1)C(=O)NC(C(=O)O)C(C)C` (configuration not stated)?
VDR inh: 13%

Results for COc1ccccc1OCC(=O)Nc1ncc(C)s1 ?
VDR inh: 8%

Of the compounds above, these contain an aryl thioether with sulfur outside any ring:
How did CCOc1cc(/C=N/NC(=O)OC)ccc1OCCSc1ccc(Cl)cc1 do in these assays?
VDR inh: -1%

What do the screens show for `C=CCNCC(=O)Nc1ccccc1SCC(=O)Nc1ccsc1C(=O)OC`?
VDR inh: 13%

What do the screens show for `Cc1ccc(NC(=O)CSc2ccc(-c3ccc(-n4cccn4)cc3)nn2)c(C)c1`?
VDR inh: -9%

What do the screens show for `Cc1cccc(C)c1NC(=O)c1sccc1SCC#N`?
VDR inh: -13%

Results for CC(=O)c1cccc(NC(=O)N2CCC(c3nnc(SCC(N)=O)n3C)CC2)c1 ?
VDR inh: 13%

Results for CC1(C)Cc2c(sc3nc(SCC(=O)NCc4ccco4)n(-c4ccccc4)c(=O)c23)CS1 ?
VDR inh: -15%

Results for CCOC(=O)c1ccc(NC(=O)CSc2nccn2Cc2ccc(OC)cc2)cc1 ?
VDR inh: 13%

What do the screens show for `CC(=O)c1ccccc1NC(=O)CSc1nnc(Cc2csc(C)n2)o1`?
VDR inh: 11%

Results for COc1ccc2cc(C)c3nnc(SCC(=O)Nc4nc(-c5ccccc5)cs4)n3c2c1 ?
VDR inh: 18%

Results for CCOc1cc(C2Nc3ccccc3-c3nnc(SCc4ccccc4)nc3O2)ccc1OC (configuration not stated) ?
VDR inh: 1%

What do the screens show for `Cc1nn(-c2ccccc2)c(OC(=O)C(C)(C)C)c1Sc1ccccc1`?
VDR inh: 79µM*

High-throughput results (PubChem BioAssay)

Only part of the results is shown; count on the stated rates, not on these rows.
